ClpP mod – qHTS Assay for Activators of ClpP; Potency, µM (series often up to 57.5 µM), without a hit: at the top dose activity change, negative = active; ATP-dependent Clp protease proteolytic subunit (Bacillus subtilis (strain 168)), P80244; purified B. subtilis ClpP, FRET peptide cleavage, 20 min; 340,000 compounds, 1.9% hits; AID 651965, 2013; active = well fitted falling curve with a large enough effect; inconclusive = small, poorly fitted or top-dose-only effect; inactive = no such curve, though single readings can be large or run the other way; further: potency means the concentration at half of the fitted maximal effect; the source files actives as falling curves though it sought activators and does not explain the sign; nearly all actives have a fitted effect of over 65% in size; many hits overshoot -100%
Target sequence (P80244 whole entry, looked up): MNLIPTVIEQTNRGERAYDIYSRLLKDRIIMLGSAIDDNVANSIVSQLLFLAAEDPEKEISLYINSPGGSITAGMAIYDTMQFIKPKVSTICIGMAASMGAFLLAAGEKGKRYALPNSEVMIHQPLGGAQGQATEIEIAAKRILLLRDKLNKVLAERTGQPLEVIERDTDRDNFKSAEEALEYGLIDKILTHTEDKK
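ClpP 10 microg/mL final, pH 8 Tris/KCl buffer with BSA, glycerol, Tween-20; compound pinned in; FRET-FV substrate; RT 20 min; Ex320/Em430; ΔFRET vs ADEP 5.8 microM, DMSO, no enzyme.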
gsp antagonist – gsp mutant antagonism; gsp-mutant cells, cAMP HTRF, 30 min; control for the full effect not named in the record; Potency, µM (top dose mostly 76.9 µM), inactives show top-dose activity change, negative = inhibition, usual class: inhibitors; 340,000 compounds, 0.4% hits; AID 624288; active = falling curve of any shape with a large fitted effect; inconclusive = falling curve, mostly with a smaller effect; inactive = flat or rising curve; cell line not stated here;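 further: intracellular cAMP measured with PDE inhibitor Ro 20-1724 present during compound exposure; potency means the concentration at half of the fitted maximal effect; on the % scale 0 is the no-effect control and ±100 the full control effect; nearly all actives have a fitted effect of over 65% in size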
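G418-selected cells were plated in DMEM/10% FBS for 16-24 h at 37C, then treated with compounds plus the PDE inhibitor […] (300 uM solution added) for 30 min at 37C. Intracellular cAMP was measured by HTRF after 30 min lysis at room temperature.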
Menin MLL FP FL – inhibitors of human menin-MLL interaction, wild-type MLL peptide; 290,000 tested, under 10 active; Fluorescence polarization, fluorescein-MLL peptide displacement from menin; FP activity change, % at 61.4 µM; inconclusive = falling polarisation curve, or a change in total fluorescence; inactive = total fluorescence flat and polarisation flat or rising; no compound was filed as active; the % refers to the polarisation; negative = inhibition;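 further: % of control where 0% means no effect; inhibitors lower the polarisation; unlabelled MLL peptide was the positive control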
Sfp PPTase inh – blocks B. subtilis Sfp PPTase activity; Potency, µM, for the others: max response, negative = inhibition, hits mostly inhibitors; Biochemical Sfp PPTase activity, qHTS; 310,000 compounds, 3.5% hits; Q9F4F7; active means well fitted inhibition curve with a large enough effect; inconclusive means small, poorly fitted or top-dose-only effect, or another doubt; inactive means no such curve, though single readings can be large or run the other way;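 further: the enzyme is Sfp with the accession as filed and its product quenches rhodamine fluorescence; potency means the concentration at half of the fitted maximal effect; 0% = enzyme reaction without inhibitor and -100% = no enzyme wells; top concentration of the series not given in the record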
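Sfp 15 nM + cpd, 15 min RT; start w/ rhodamine-CoA 5 uM, BHQ-2-YbbR 12.5 uM (final); 50 mM Hepes pH 7.6, 10 mM MgCl2, 0.01% NP-40, 0.01% BSA; read 525/598 nm at 0 and 30 min.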
TRPV1 PAM – potentiators of human vanilloid receptor 1 (TRPV1); 320,000 compounds, 0.02% hits; TRPV1-expressing cells, Fluo-8 calcium influx, capsaicin EC20 potentiation; host cell line not named in the record; control for the full effect not named in the record; potentiation, % at 8.33 µM; AID 540277; active means potentiation above 80%; inconclusive means 30% to 80%; inactive means below 30%; further: 0% is about no effect
Target sequence (Q8NER1 whole entry, looked up): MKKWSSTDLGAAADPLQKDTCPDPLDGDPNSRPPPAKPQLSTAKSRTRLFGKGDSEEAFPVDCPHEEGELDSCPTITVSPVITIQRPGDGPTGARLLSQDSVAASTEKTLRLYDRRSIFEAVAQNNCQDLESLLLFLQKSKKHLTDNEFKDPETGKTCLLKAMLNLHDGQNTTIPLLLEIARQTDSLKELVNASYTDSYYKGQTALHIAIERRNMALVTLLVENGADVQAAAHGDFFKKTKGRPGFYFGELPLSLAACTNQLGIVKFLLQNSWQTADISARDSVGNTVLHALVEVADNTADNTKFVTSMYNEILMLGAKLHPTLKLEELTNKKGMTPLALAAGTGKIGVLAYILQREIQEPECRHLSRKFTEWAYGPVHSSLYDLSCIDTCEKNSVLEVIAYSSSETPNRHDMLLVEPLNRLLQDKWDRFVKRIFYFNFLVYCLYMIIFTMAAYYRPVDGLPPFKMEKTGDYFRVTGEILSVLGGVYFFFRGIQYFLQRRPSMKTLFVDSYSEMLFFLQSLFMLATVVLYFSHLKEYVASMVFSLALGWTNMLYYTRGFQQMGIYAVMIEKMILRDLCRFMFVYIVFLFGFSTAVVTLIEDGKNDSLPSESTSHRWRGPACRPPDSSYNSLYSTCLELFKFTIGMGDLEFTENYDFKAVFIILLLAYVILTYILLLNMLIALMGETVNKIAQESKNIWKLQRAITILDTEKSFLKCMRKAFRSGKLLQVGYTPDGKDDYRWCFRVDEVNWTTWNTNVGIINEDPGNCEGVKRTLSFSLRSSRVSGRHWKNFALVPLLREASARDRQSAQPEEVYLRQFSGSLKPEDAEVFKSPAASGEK
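TRPV1-expressing cells were cultured overnight at 35.5C and loaded with Fluo-8 calcium dye for 40 to 90 min at room temperature. After a 10 s baseline, compound was added and calcium influx was read kinetically for 3 min (ex 480/em 520 nm).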
CtBP-E1A blk – blocks the CtBP interaction with E1A; AlphaScreen GST-E1A/His-CtBP binding, 1536-well; active compounds read low; control for the full effect not named in the record; activity change, % (no concentration beside the values); 340,000 compounds, 0.49% hits; AID 651724; in the data active means activity change below about -65%; inconclusive means about -30% to -65%; inactive means above about -30%; further: on the % scale 0 is the no-effect control and ±100 the full control effect
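Steps: dispense buffer (Tris pH 8.0, NaCl 300 mM, TCEP 1 mM, BSA, Tween 20); add 5X protein mix (GST-E1A, His-CtBP, 125 nM each); pin 23 nL compound; 2 h at 37 °C, dark; add 5X beads (50 ug/mL); 1 h; read.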
gsp ag – agonists of gsp mutant (McCune-Albright syndrome); Potency, µM (highest dose often 76.9 µM), without a hit: at the highest dose activation (cAMP increase), usual class: activators; gsp mutant cells, cAMP HTRF, 30 min; control for the full effect not named in the record; 340,000 compounds, 0.13% hits; active = well fitted activation curve with a large enough effect; inconclusive = small, poorly fitted or top-dose-only effect, or another doubt; inactive = no such curve, though single readings can be large or run the other way; cell line not stated here;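 further: phosphodiesterase inhibitor Ro 20-1724 added with compounds to block cAMP breakdown; potency means the concentration at half of the fitted maximal effect; nearly all actives have a fitted effect of over 60% in size; about a fifth of the inactives were tested at one dose only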
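Cells in DMEM/10% FBS with G418 were pretreated with compounds in DMSO plus […] (300 uM stock) for 30 min at 37C. cAMP was measured by HTRF (cAMP-d2 plus anti-cAMP antibody-K) after 30 min at room temperature.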
The depositor's hits bear a star; ? = inconclusive; . = not tested or not shown; & = joins results of further samples; [ ] = dose if it differs, or a comment.

compound	ClpP mod	gsp antagonist	Menin MLL FP FL	Sfp PPTase inh	TRPV1 PAM	CtBP-E1A blk	gsp ag
Cc1cc(SCCOc2ccc(Br)cc2)nc(N)n1	-0.8%	?	-1.3	-11.5%	10.4	1.4	-33.9%[inhibitor]
O=C(O)COc1ccccc1C=NNC(=O)c1ccccc1NS(=O)(=O)c1cccs1	.	-5.4%	.	.	.	-12.7	?
CC(NC(=O)c1ccc(Cl)cc1Cl)C(c1ccccc1)N1CCOCC1 (stereo not given)	.	-3.4%	-0.4	10.2%	-4.0	7.2	8.8%[15.4 µM]
Nc1cc2c(cc1Cl)-c1ccc(Cl)cc1C2=O	-1.5%	4.0%	.	.	.	-15.9	10.5%[15.4 µM]
Cc1ccc(-c2cc(C(=O)NCCCN3CCOCC3)c3ccc(Cl)c(C)c3n2)cc1	-24.3%	12.5%	.	?	-16.1	0.7	0.3%
O=Cc1ccc(OC(=O)Cc2ccc(F)cc2)cc1	.	.	0.0	15.4%	1.1	.	.
Cc1nc2ccccc2n1CC(O)c1ccccc1 (stereo not given)	.	12.1%	2.4	2.2%	?	-16.8	1.9%
CCN(CC)S(=O)(=O)c1cccc(C(=O)N2CC(O)CC2C(=O)OC)c1 (stereo not given)	-8.4%	7.5%	4.4	9.8%	-1.8	3.0	8.0%
O=C(CSc1nnc(-c2cccs2)n1-c1ccccc1)NCc1ccc2c(c1)OCO2	-4.5%	-12.1%	4.8	-0.5%	-2.5	-1.9	-8.5%
Cc1ccc(CNC(=O)C(Cc2ccccc2)n2cccc2)cc1 (stereo not given)	.	-0.8%	5.1	17.5%	-4.4	-12.8	-15.9%[15.4 µM]
Nc1nc(-c2ccccc2)[nH]c(=O)c1N	28.2µM*	7.4%	?	-9.6%	-0.2	-21.8	5.8%[15.4 µM]
COc1ccc(C(=O)NCCN=C2NS(=O)(=O)c3ccccc32)cc1	.	8.4%	3.1	14.6%	6.5	-0.2	-12.2%[15.4 µM]

Continuation.
compound	ClpP mod	gsp antagonist	Menin MLL FP FL	Sfp PPTase inh	TRPV1 PAM	CtBP-E1A blk	gsp ag
CCOc1ccc(Cl)cc1S(=O)(=O)N1CCN(c2ccc(F)cc2)CC1	-7.3%	4.1%	0.1	2.7%	-7.2	-2.5	10.9%
Cc1ccc(S(=O)(=O)c2nc(-c3ccccc3)oc2SCC(=O)NCC2CCCO2)cc1 (stereo not given)	.	-13.5%	1.3	-3.8%	-18.8	7.3	1.1%
COc1cc(OC)cc(C(=O)N2CCN(C(=O)c3cccc(F)c3)CC2)c1	1.6%	6.6%	-0.9	8.3%	-7.8	-2.7	10.4%
Cc1ccc(OCC(=O)N2CCN(S(=O)(=O)c3ccccc3)CC2)c([N+](=O)[O-])n1	-1.9%	6.8%	-0.9	-1.9%	14.3	1.5	-0.5%
NC(=O)c1cccc(NC(=O)CCCCC(=O)Nc2cccc(C(N)=O)c2)c1	-2.6%	5.4%	0.9	-6.6%	11.2	.	0.3%
CS(=O)(=O)c1ccc(SCC(=O)NC2CCS(=O)(=O)C2)c([N+](=O)[O-])c1 (stereo not given)	.	5.4%	-1.4	-27.5%	-6.4	20.1	-37.6%[inhibitor]
O=C(CSc1nnc(CNC(=O)c2cccc(C(F)(F)F)c2)o1)NCc1ccco1	0.8%	12.3%	-1.6	7.4%	-2.3	-2.5	-2.8%[15.4 µM]
CCN(CC)CCNC(=O)c1ccc(NS(=O)(=O)c2ccc3c(c2)OCCO3)cc1	.	.	0.9	6.0%	-5.6	-11.8	-5.7%[15.4 µM]
Nc1ccn([C@@H]2O[C@H](CNCc3ccc(N4CCNCC4)cc3)[C@@H](O)[C@H]2O)c(=O)n1	1.9%	.	.	.	.	0.6	?
CC(C)N(Cc1nnc(-c2ccc(Cl)cc2)o1)C(=O)c1cc2ccccc2o1	-8.4%	-11.9%	.	.	-8.6	.	22.7%
COc1cccc(SCC2(O)CCN(C(=O)c3ccc(Cl)cc3)CC2)c1	-3.4%	5.5%	-3.6	-13.4%	4.4	-22.3	18.6%[15.4 µM]
O=C(Nc1ccc(N2CCCCC2)c(Cl)c1)c1ncn[nH]1	0.5%	-15.2%	2.6	14.3%	1.2	0.8	?

More compounds follow.
compound	ClpP mod	gsp antagonist	Menin MLL FP FL	Sfp PPTase inh	TRPV1 PAM	CtBP-E1A blk	gsp ag
CCN(c1ccccc1)S(=O)(=O)c1ccc(OC)c(NC(=O)C2CC2)c1	-1.5%	-15.0%	.	.	-10.1	-16.7	-12.3%
CCCn1c(C)cc(C(=O)Cn2nnc3ccccc3c2=O)c1C	0.6%	1.9%	-3.2	2.2%	-3.9	7.8	-2.1%[15.4 µM]
CC(C)(C)c1ccc(OCC(=O)N2CCN(c3ncccn3)CC2)cc1	-19.0%	1.9%	.	6.4%	-3.1	2.7	?
CCCCC(CC)CNC(=O)CC1Nc2c3ccccc3nc(=S)n2C1=O (stereo not given)	.	-24.7%	-4.1	-0.3%	-5.5	22.8	48.5%[15.4 µM]
CS(=O)(=O)N(CC(=O)N1CCc2ccccc2C1)c1ccccc1F	0.6%	6.5%	.	.	.	11.6	-32.3%[inhibitor]
CC(C)CSC1=NSC2=NC(=O)/C(=C\c3ccccc3)C(=N)N12	-9.3%	2.9%	6.4	33.3%[activator]	5.2	-3.1	-38.6%[inhibitor]
CC(=O)Nc1ccc(S(=O)(=O)N2CCN(C(=O)c3ncoc3-c3ccc(C)cc3)CC2)cc1	.	.	4.1	17.9%	0.8	-10.4	1.2%[15.4 µM]
O=C1[C@@H]2Cc3c([nH]c4ccccc34)CN2C(=O)CN1CCO	.	1.1%	6.0	15.1%	?	-1.6	?
Cc1cccc(C(=O)Oc2ccc(/C=N/NC(=O)c3ccncc3)cc2)c1	-0.8%	-9.5%	-3.3	0.8%	-4.9	3.8	7.4%[15.4 µM]
CCn1c(SCC(=O)Nc2ccc(N3CCOCC3)cc2)nnc1-c1ccco1	-0.3%	-1.6%	.	.	4.0	-0.4	-4.4%[15.4 µM]
CN=C1SC(CC(=O)Nc2cccc(Cl)c2Cl)C(=O)N1C (stereo not given)	0.1%	16.0%	3.9	5.5%	5.7	2.9	-6.2%
O=C(NCCN1CCN(C(=O)c2cccc(Br)c2)CC1)C(=O)Nc1ccc(Br)cc1	.	-15.6%	3.4	4.0%	-10.2	-18.1	0.8%

The listing continues.
compound	ClpP mod	gsp antagonist	Menin MLL FP FL	Sfp PPTase inh	TRPV1 PAM	CtBP-E1A blk	gsp ag
O=C(CNC(=O)c1cccs1)Nc1cccc(S(=O)(=O)N2CCOCC2)c1	0.9%	0.1%	.	.	7.0	-20.2	2.5%
O=C(C1CC1)N(Cc1ccco1)c1nc(-c2ccccc2)cs1	-3.8%	-0.8%	?	?	5.6	-2.0	21.0%
Cc1ccn2c(C(=O)CSc3ccc(Cl)cc3Cl)c(C)nc2c1	-1.7%	10.8%	3.5	9.3%	0.7	3.7	3.7%
CCCCOC(=O)NCN1C(=O)C2C3C=CC(C3)C2C1=O (stereo not given)	-3.2%	8.6%	4.2	8.9%	-10.3	12.1	-22.0%
O=C(Nc1cc(Cl)cc(Cl)c1)N1CCCC1	0.3%	3.3%	-0.5	5.4%	-17.6	10.3	-5.9%
NS(=O)(=O)c1ccc(NC(=O)COC(=O)CCNC(=O)NC23CC4CC(CC(C4)C2)C3)cc1	-3.3%	-3.7%	2.8	17.1%	-10.0	0.3	10.9%
NC(=O)c1nsc(C(=O)N(c2ccccc2)C(C(=O)NC2CCCCC2)c2ccc(O)cc2)c1N (stereo not given)	.	-7.4%	3.6	13.8%	0.0	-14.3	2.3%[15.4 µM]
O=C(c1cc(COc2ccc(F)cc2Cl)on1)N1CCc2ccccc2C1	.	-5.3%	4.7	1.1%	-13.4	-6.3	3.1%
COc1cc(OC)cc(C(=O)N2CCN(C(=O)COc3ccc4ccccc4c3)CC2)c1	-0.6%	-21.3%	0.4	-17.5%	-0.3	-0.4	7.2%
Cc1cccc(C)c1NC(=O)C1(NC(=O)c2cnccn2)CCCCC1	-2.6%	5.6%	2.1	19.6%	.	0.0	4.0%
CCCn1c(SCC(=O)Nc2ccc(S(=O)(=O)N(C)C)cc2)n[nH]c1=O	0.2%	3.5%	-1.5	-0.4%	-12.2	0.5	1.9%[15.4 µM]
COc1cc(C)c(C(=O)Oc2cc(C)c(C(=O)O)c(O)c2C)c(O)c1C(=O)O	-2.3%	3.6%	.	.	5.8	-1.5	-0.2%

More structures:
compound	ClpP mod	gsp antagonist	Menin MLL FP FL	Sfp PPTase inh	TRPV1 PAM	CtBP-E1A blk	gsp ag
CCOC(=O)Cc1csc(N/N=C/c2cccc([N+](=O)[O-])c2)n1	.	-2.7%	?	-18.7%	3.0	-7.8	19.7%[15.4 µM]
CC1=C(C(=O)OCc2ccccc2)C(c2cccc(F)c2)NC(=O)N1 (stereo not given)	?	-4.4%	-3.6	-5.8%	-2.4	0.0	-15.2%[15.4 µM]
N#Cc1ccc(C23CC4(C2)[C@H](CN(Cc2ccc(C(F)(F)F)cc2)[C@@H]4c2ccccc2)C3c2ccc(C(F)(F)F)cc2)cc1 (stereo not given in full)	-3.4%	9.4%	0.4&1.6	7.8%&19.1%	-34.6	2.0	-15.3%
Cc1ccc(C)c(NS(=O)(=O)c2cc(C(=O)NCC3CCCO3)ccc2C)c1 (stereo not given)	0.8%	-6.7%	.	4.9%	6.0	0.0	-3.2%
CS(=O)(=O)N(CC(=O)NC1CC2CCC1C2)c1ccc(Oc2ccccc2)cc1 (stereo not given)	.	-3.6%	-1.3	1.2%	3.9	0.3	-18.6%[15.4 µM]
O=C1C(=O)N(CCO)C(c2ccccc2[N+](=O)[O-])/C1=C(\O)c1ccccc1 (stereo not given)	-1.4%	6.8%	-0.4	-4.9%	6.0	-6.7	1.0%[15.4 µM]
CCOc1ccccc1-n1nnnc1SCC(=O)NCc1ccco1	-3.2%	1.0%	-11.7	1.5%	-2.9	.	-12.3%
